Vaccinia stage: blocks a specific stage of Vaccinia orthopoxvirus infection, primary screen, cell-based, single point. actives 0.01% (n = 89,000). Vaccinia-infected cells, mCherry/Venus stage reporter fluorescence; stronger effect = lower value; some inactives read as strong as hits. activity change (mCherry), % (test concentration not listed);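 active means mCherry past -33% and 40 or more points under the early reporter, replicates agreeing; inconclusive means past -33% without that gap or agreement; tested in A549 cells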;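 further: scaled between vehicle wells and reference inhibitor wells; 23 nL library stock went into each well; one replicate is shown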
Vaccinia stage Venus: second read-out of Vaccinia stage, no call of its own (marks repeat the call); activity change (Venus), %; measured here: Venus reporter, other viral stage;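 negative = less Venus signal; first of two replicates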
An asterisk follows results filed as active. An excerpt; rates above refer to the full screens.

How did COc1ccc2c3c([nH]c2c1)[C@@H](CO)N(C)CC31CCN(C(=O)CN(C)C)CC1 do in these assays?
Vaccinia stage: 12; Vaccinia stage Venus: 0

Results for C[C@H]1CN([C@@H](C)CO)C(=O)c2cc(-c3ccc(F)cc3)cnc2O[C@H]1CN(C)C(=O)c1ccc(F)cc1 ?
Vaccinia stage: -6; Vaccinia stage Venus: -3

Results for CCS(=O)(=O)NCC[C@@H]1CC[C@@H](NS(=O)(=O)c2cccc(F)c2)[C@@H](CO)O1 ?
Vaccinia stage: 5; Vaccinia stage Venus: 5

What do the screens show for `CC=Cc1ccc2n(c1=O)C[C@@H]1[C@@H](CO)[C@H](C(=O)NCCC)[C@H]2N1C(=O)C1CCCC1` (mixture of isomers)?
Vaccinia stage: 13; Vaccinia stage Venus: 8

What do the screens show for `COc1ccc2c3c([nH]c2c1)[C@@H](CO)N(Cc1ccccc1)CC31CCN(C(=O)c2cccnc2)CC1`?
Vaccinia stage: 9; Vaccinia stage Venus: 6

What do the screens show for `C[C@@H]1CN([C@H](C)CO)C(=O)CCCn2nncc2CO[C@@H]1CN(C)C(=O)Nc1ccccc1`?
Vaccinia stage: -4; Vaccinia stage Venus: 14

What do the screens show for `O=C(C[C@@H]1CC[C@@H]2[C@H](COC[C@H](O)CN2C(=O)c2ccccn2)O1)N1CCN(c2ccccc2)CC1`?
Vaccinia stage: 2; Vaccinia stage Venus: 8

Results for CCCNC(=O)[C@H]1[C@H](CO)[C@H]2Cn3c(ccc(-c4ccc(F)cc4)c3=O)[C@@H]1N2C ?
Vaccinia stage: -4; Vaccinia stage Venus: -2

How did COCCNC(=O)[C@@H]1[C@@H](CO)[C@@H]2Cn3c(ccc(-c4ccc(F)cc4)c3=O)[C@H]1N2C do in these assays?
Vaccinia stage: 4; Vaccinia stage Venus: 1

What do the screens show for `CC(C)NC(=O)N[C@H]1CC[C@H](CCn2cc(-c3ccc(F)cc3)nn2)O[C@@H]1CO`?
Vaccinia stage: -21; Vaccinia stage Venus: -14

Results for Cc1ccc(S(=O)(=O)N2C[C@@H](O)COC[C@@H]3O[C@@H](CC(=O)NCCN4CCCCC4)CC[C@H]32)cc1 ?
Vaccinia stage: -5; Vaccinia stage Venus: 2

How did COc1ccc(NC(=O)N2CCCCN3[C@H](CO)[C@@H](c4ccc(C5=CCCC5)cc4)[C@@H]3C2)cc1 do in these assays?
Vaccinia stage: -23; Vaccinia stage Venus: -22

How did CO[C@H]1CN(C)C(=O)c2cc(NC(=O)C3CCCCC3)ccc2OC[C@H](C)N(C(=O)c2ccccc2)C[C@@H]1C do in these assays?
Vaccinia stage: 2; Vaccinia stage Venus: -3

Results for COc1ccc(NC(=O)N(C)C[C@H]2Oc3c(NC(=O)c4cnccn4)cccc3C(=O)N([C@@H](C)CO)C[C@H]2C)cc1 ?
Vaccinia stage: 2; Vaccinia stage Venus: 6

How did C[C@H](CO)N1C[C@H](C)[C@@H](CN(C)CC2CCCCC2)Oc2ccc(NC(=O)Nc3ccccc3)cc2C1=O do in these assays?
Vaccinia stage: -25; Vaccinia stage Venus: -20

How did CO[C@@H]1CN(C)C(=O)c2cc(NC(=O)c3cnccn3)ccc2OC[C@@H](C)N(C(=O)C2CC2)C[C@@H]1C do in these assays?
Vaccinia stage: -3; Vaccinia stage Venus: -5

How did C[C@@H]1CN([C@@H](C)CO)C(=O)Cc2cc(NS(=O)(=O)c3ccc(Cl)cc3)ccc2O[C@@H]1CN(C)S(=O)(=O)c1ccccc1 do in these assays?
Vaccinia stage: -11; Vaccinia stage Venus: -12

How did O=C(C[C@@H]1C=C[C@H](NC(=O)c2ccccc2)[C@@H](CO)O1)NCc1ccncn1 do in these assays?
Vaccinia stage: -12; Vaccinia stage Venus: 1

What do the screens show for `CCC(=O)N(C)C[C@H]1Oc2cc(-c3ccccc3OC)ccc2S(=O)(=O)N([C@@H](C)CO)C[C@@H]1C`?
Vaccinia stage: 1; Vaccinia stage Venus: 11

Results for COc1ccc2c3c([nH]c2c1)[C@H](CO)N(S(=O)(=O)c1cn(C)cn1)CC31CCN(Cc2ccccc2F)CC1 ?
Vaccinia stage: inconclusive

4 entries drawn at random from the list so far, as already listed:
What do the screens show for `COc1ccc2c3c([nH]c2c1)[C@@H](CO)N(Cc1ccccc1)CC31CCN(C(=O)c2cccnc2)CC1`?
Vaccinia stage: 9; Vaccinia stage Venus: 6

How did COc1ccc(NC(=O)N2CCCCN3[C@H](CO)[C@@H](c4ccc(C5=CCCC5)cc4)[C@@H]3C2)cc1 do in these assays?
Vaccinia stage: -23; Vaccinia stage Venus: -22

How did COc1ccc2c3c([nH]c2c1)[C@@H](CO)N(C)CC31CCN(C(=O)CN(C)C)CC1 do in these assays?
Vaccinia stage: 12; Vaccinia stage Venus: 0

Results for COc1ccc2c3c([nH]c2c1)[C@H](CO)N(S(=O)(=O)c1cn(C)cn1)CC31CCN(Cc2ccccc2F)CC1 ?
Vaccinia stage: inconclusive

Continuation:
How did C[C@H](CO)N1C[C@H](C)[C@@H](CN(C)C(=O)C2CCCCC2)OCCCC[C@H](C)Oc2ccc(NS(=O)(=O)c3cn(C)cn3)cc2C1=O do in these assays?
Vaccinia stage: 18; Vaccinia stage Venus: 7

Results for C[C@@H]1CN([C@H](C)CO)S(=O)(=O)c2ccc(-c3cncnc3)cc2O[C@@H]1CN(C)C(=O)Cc1cccnc1 ?
Vaccinia stage: 37; Vaccinia stage Venus: 14

Results for O=C(Cc1ccncc1)NCC[C@H]1CC[C@@H](NC(=O)C2CCOCC2)[C@H](CO)O1 ?
Vaccinia stage: 11; Vaccinia stage Venus: 11

Results for COc1ccc([Si](C)(C)[C@H]2[C@H](CCO)O[C@@]3(C(=O)N(Cc4ccc(N5CCCCC5=O)cc4)c4ccccc43)[C@@H]2C)cc1 ?
Vaccinia stage: inconclusive

How did O=C(C[C@@H]1C=C[C@@H](NC(=O)c2ccncc2)[C@H](CO)O1)NCCc1ccncc1 do in these assays?
Vaccinia stage: -1; Vaccinia stage Venus: -2

How did Cc1ccc(S(=O)(=O)N(C)C[C@H]2OCCCC[C@@H](C)Oc3ccc(NC(=O)CCCN(C)C)cc3C(=O)N([C@@H](C)CO)C[C@@H]2C)cc1 do in these assays?
Vaccinia stage: -2; Vaccinia stage Venus: -5

Results for O=C1O[C@@H](c2ccccc2)[C@@H](c2ccccc2)N2[C@@H](c3ccc(OCCO)cc3)[C@]3(C(=O)Nc4ccc(C#CC5=CCCCC5)cc43)[C@@H](C(=O)N3CCCCCCC3)[C@H]12 ?
Vaccinia stage: -20; Vaccinia stage Venus: 20

Results for CN1C(=O)c2cc(NC(=O)Cc3cccs3)ccc2OC[C@@H]2O[C@@H](CC(=O)N[C@H]3CCN(Cc4ccccc4)C3)CC[C@@H]21 ?
Vaccinia stage: -7; Vaccinia stage Venus: -4

Results for CCCC(=O)Nc1ccc2c(c1)C(=O)N(C)[C@@H]1CC[C@H](CC(=O)NC3CCCC3)O[C@@H]1CO2 ?
Vaccinia stage: 16; Vaccinia stage Venus: 14

Results for CCCNC(=O)C[C@@H]1CC[C@@H]2[C@H](COC[C@H](O)CN2Cc2cccc(F)c2)O1 ?
Vaccinia stage: -3; Vaccinia stage Venus: -5

How did CCC(=O)Nc1ccc2c(c1)C(=O)N(C)C[C@H](OC)[C@@H](C)CN(C(=O)Cc1ccccn1)[C@@H](C)CO2 do in these assays?
Vaccinia stage: 8; Vaccinia stage Venus: 19

Results for Cc1ccc(S(=O)(=O)N(C)C[C@H]2Oc3ccc(NC(=O)CCCCCC(=O)Nc4ccccc4N)cc3CC(=O)N([C@@H](C)CO)C[C@H]2C)cc1 ?
Vaccinia stage: 7; Vaccinia stage Venus: 13

Results for O=C(c1ccccc1)N1Cc2ccccc2C[C@]2(N=C(c3ccc(OCCCO)cc3)O[C@@H]2c2ccccc2)C1=O ?
Vaccinia stage: -33; Vaccinia stage Venus: -23

How did COc1ccccc1-c1cn(CC[C@@H]2CC[C@@H](NC(=O)c3ccccc3F)[C@@H](CO)O2)nn1 do in these assays?
Vaccinia stage: 7; Vaccinia stage Venus: 9

Results for CC(C)NC(=O)N(C)C[C@H]1Oc2ccc(NC(=O)CCC(F)(F)F)cc2CC(=O)N([C@H](C)CO)C[C@H]1C ?
Vaccinia stage: 11; Vaccinia stage Venus: -3

Results for O=C([C@@H]1[C@@H](CO)[C@@H]2Cn3c(cccc3=O)[C@@H]2N1Cc1ccccc1Cl)N1CCCCC1 ?
Vaccinia stage: 6; Vaccinia stage Venus: 7

Results for COc1cccc(C(=O)Nc2ccc3c(c2)C(=O)N(C)[C@@H]2CC[C@@H](CC(=O)NCC4CC4)O[C@@H]2CO3)c1 ?
Vaccinia stage: -4; Vaccinia stage Venus: 2

What do the screens show for `O=C(C1CCC1)N1CCCCN2[C@@H](CO)[C@@H](c3ccc(C#CC4CCCC4)cc3)[C@@H]2C1`?
Vaccinia stage: inconclusive

What do the screens show for `Cc1noc(C)c1NC(=O)N[C@@H]1CC[C@H](CC(=O)Nc2ccc(-c3ccccc3)cc2)O[C@H]1CO`?
Vaccinia stage: -6; Vaccinia stage Venus: -1

How did C[C@H]1CN([C@@H](C)CO)C(=O)c2cc(NC(=O)CCCN(C)C)ccc2O[C@H]1CN(C)Cc1ccc2c(c1)OCO2 do in these assays?
Vaccinia stage: 15; Vaccinia stage Venus: 17

Of the compounds above, these contain two or more sulfur atoms:
Results for CCS(=O)(=O)NCC[C@@H]1CC[C@@H](NS(=O)(=O)c2cccc(F)c2)[C@@H](CO)O1 ?
Vaccinia stage: 5; Vaccinia stage Venus: 5

How did C[C@@H]1CN([C@@H](C)CO)C(=O)Cc2cc(NS(=O)(=O)c3ccc(Cl)cc3)ccc2O[C@@H]1CN(C)S(=O)(=O)c1ccccc1 do in these assays?
Vaccinia stage: -11; Vaccinia stage Venus: -12

Next results
Results for O=C(C[C@H]1CC[C@@H]2[C@H](COC[C@@H](O)CN2C(=O)c2ccccc2F)O1)NCc1ccc(-c2ccccc2)cc1 ?
Vaccinia stage: -8; Vaccinia stage Venus: -10

Results for C[C@H](CO)N1C[C@H](C)[C@@H](CN(C)S(=O)(=O)c2ccccc2)Oc2c(NC(=O)Nc3ccc4c(c3)OCO4)cccc2C1=O ?
Vaccinia stage: -7; Vaccinia stage Venus: 8

What do the screens show for `COCC(=O)Nc1ccc2c(c1)[C@@H]1C[C@@H](CC(=O)NCc3ccc4c(c3)OCO4)O[C@@H](CO)[C@@H]1O2`?
Vaccinia stage: 14; Vaccinia stage Venus: 12

Results for O=C(NCc1ccccc1)c1ccc(Br)cc1[N+](=O)[O-] ?
Vaccinia stage: 12; Vaccinia stage Venus: 10

Results for O=C(C[C@H]1C[C@H]2c3cc(NC(=O)C4CCOCC4)ccc3O[C@H]2[C@@H](CO)O1)NCc1cc(F)ccc1F ?
Vaccinia stage: 12; Vaccinia stage Venus: 10

Results for CNC[C@@H]1Oc2ccc(NC(=O)NC(C)C)cc2CC(=O)N([C@@H](C)CO)C[C@@H]1C ?
Vaccinia stage: 12; Vaccinia stage Venus: 9

Results for COc1ccccc1-c1cnc2c(c1)C(=O)N([C@@H](C)CO)C[C@H](C)[C@@H](CN(C)Cc1ccncc1)O2 ?
Vaccinia stage: 10; Vaccinia stage Venus: 0

How did Cc1noc(C)c1S(=O)(=O)N(C)C[C@@H]1OCc2cnnn2CCCC(=O)N([C@H](C)CO)C[C@@H]1C do in these assays?
Vaccinia stage: 6; Vaccinia stage Venus: 6

What do the screens show for `C[C@@H]1CN([C@@H](C)CO)C(=O)c2cc(NC(=O)Nc3ccccc3)ccc2O[C@@H]1CN(C)S(=O)(=O)c1ccc(F)cc1`?
Vaccinia stage: -12; Vaccinia stage Venus: -3

How did COc1ccc2c3c(n(C)c2c1)[C@H](CO)N(C(=O)Nc1c(C)noc1C)CC31CN(CC2CC2)C1 do in these assays?
Vaccinia stage: 13; Vaccinia stage Venus: 8

What do the screens show for `Cc1ccc(S(=O)(=O)Nc2ccc3c(c2)C(=O)N([C@@H](C)CO)C[C@H](C)[C@H](CN(C)S(=O)(=O)c2ccc(C)cc2)OCCCC[C@H](C)O3)cc1`?
Vaccinia stage: -26; Vaccinia stage Venus: -17

What do the screens show for `Cn1cnc(CCNC(=O)C[C@H]2CC[C@@H]3[C@H](COC[C@H](O)CN3C(=O)C3CCCC3)O2)c1`?
Vaccinia stage: 15; Vaccinia stage Venus: 13

How did C[C@H](CO)N1C[C@H](C)[C@@H](CN(C)Cc2ccccc2)OCCCC[C@H](C)Oc2ccc(NC(=O)Nc3ccc(C(F)(F)F)cc3)cc2C1=O do in these assays?
Vaccinia stage: inconclusive

Results for CCC(=O)Nc1ccc2c(c1)C(=O)N(C)C[C@@H](OC)[C@H](C)CN(CC1CC1)[C@@H](C)CO2 ?
Vaccinia stage: -5; Vaccinia stage Venus: -2

How did O=C(N[C@H]1CC[C@@H](CC(=O)N2CCN(c3ccccc3)CC2)O[C@H]1CO)c1ccncc1 do in these assays?
Vaccinia stage: 19; Vaccinia stage Venus: 12

How did C[C@@H]1CN([C@H](C)CO)C(=O)CCCn2nncc2CO[C@H]1CN(C)Cc1ccc2c(c1)OCCN2C do in these assays?
Vaccinia stage: inconclusive

What do the screens show for `N#C[C@@H]1[C@@H](c2ccc(C3=CCCCC3)cc2)[C@H](CO)N1C(=O)NC1CCCCC1`?
Vaccinia stage: -29; Vaccinia stage Venus: -12

Results for CN(C)CCCNC(=O)C[C@@H]1CC[C@H](NS(=O)(=O)c2ccccc2)[C@@H](CO)O1 ?
Vaccinia stage: 10; Vaccinia stage Venus: -1

What do the screens show for `C[C@H](CO)N1C[C@H](C)[C@@H](CN(C)S(=O)(=O)c2cn(C)cn2)Oc2ccc(NC(=O)Nc3ccc4c(c3)OCO4)cc2C1=O`?
Vaccinia stage: 20; Vaccinia stage Venus: 10

Source: PubChem BioAssay
